# Screens deposited in PubChem BioAssay by several laboratories.
# LANA-H2B inh – blocks KSHV LANA binding to histone H2A/H2B; Q9QR71; inhibition, % (test concentration not listed); cell-free LANA-H2A/H2B peptide, fluorescence polarization; hit rate 0.6% among 320,000; in the data active means inhibition mostly above about 10%, no sharp cut-off; inactive means mostly below about 6.7%;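 further: stock transfer was 7.5 nL into about 10 µL; 0% = median of vehicle wells and 100% = median of positive control wells; one replicate is shown; the record names a cut of 25% in any replicate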
# B2AR ag – agonists of human beta-2 adrenergic receptor inducing internalization; P07550; Am2.2-beta2AR cells, FAP receptor internalization, flow cytometry; reference of the scale not given here; response, % (no concentration beside the values); hit rate 0.43% among 340,000; AID 504454;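 active means response above a set limit, near 3 SD of response in nonfluorescent compounds, cut at about 42% in these data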;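 further: stock transfer was 100 nL into about 11 µL; a reference agonist was the positive control; negative values mostly stem from fluorescent compounds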
# Target sequence (P07550 whole entry, looked up): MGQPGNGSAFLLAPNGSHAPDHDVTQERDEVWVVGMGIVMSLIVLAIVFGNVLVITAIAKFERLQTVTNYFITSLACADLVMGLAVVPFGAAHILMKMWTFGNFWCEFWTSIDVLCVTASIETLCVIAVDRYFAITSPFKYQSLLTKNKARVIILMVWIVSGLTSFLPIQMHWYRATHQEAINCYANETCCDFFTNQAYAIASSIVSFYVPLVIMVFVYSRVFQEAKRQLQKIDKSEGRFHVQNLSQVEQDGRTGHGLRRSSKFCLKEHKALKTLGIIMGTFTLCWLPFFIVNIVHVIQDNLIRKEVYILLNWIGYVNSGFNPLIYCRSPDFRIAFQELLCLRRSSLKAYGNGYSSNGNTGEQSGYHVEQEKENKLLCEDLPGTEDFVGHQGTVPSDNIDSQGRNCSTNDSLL
# A1 inh – inhibitors of the anti-apoptotic protein A1, read as caspase activation; MEF A1-2A-BIM cells, Caspase-Glo 3/7 luminescence, 3 h; percent of clofoctol response, vehicle zero; caspase activation, % (concentration not given with the values); hit rate 0.066% among 330,000;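 active means over half of replicate activation scores above 10%, or exactly half above 10 with the replicate mean above 10; inconclusive means replicate mean below 10 yet half the replicates above 10; inactive means over half of replicates below 10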;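 further: wells of about 30 µL received 50 nL stock; many hits fall short of the cut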
# ALR inh – blocks human ALR sulfhydryl oxidase activity. P55789. purified ALR, DTT oxidation, H2O2 HRP-luminol luminescence. inhibition, % (test concentration not listed). hit rate 3.8% among 290,000;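 active means mean and each replicate at 75% or more; inconclusive means only one of the two met; inactive means neither met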;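 further: stock transfer was 7.5 nL into about 7.5 µL; 0% = neutral wells and 100% = wells with inactivated enzyme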
# Target sequence (P55789 whole entry, looked up): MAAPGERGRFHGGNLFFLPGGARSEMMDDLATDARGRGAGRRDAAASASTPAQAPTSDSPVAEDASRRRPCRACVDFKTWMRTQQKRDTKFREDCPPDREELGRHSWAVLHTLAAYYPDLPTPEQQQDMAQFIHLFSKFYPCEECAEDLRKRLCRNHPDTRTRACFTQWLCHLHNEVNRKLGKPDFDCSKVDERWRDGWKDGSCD
# rRNA inh HTS – inhibitors of bacterial rRNA selective over humanized ribosomes. hit rate 1.6% among 350,000. GFP signal change (wild-type ribosome), % (no concentration beside the values). AID 720706. E. coli WT GFP vs humanized-ribosome RFP mutants, fluorescence, 24 h; stronger effect = lower value; DMSO median 0, no signal -100;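 active means significant combined selectivity score with lowered wild-type GFP, culture density cut under 30%, mutant RFP and density less affected; inactive means any of these conditions unmet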; further: one replicate is shown; some compounds called inactive have numbers as strong as hits
# Beta apoptosis – beta cell apoptosis inhibition; INS-1E cytokine-induced death, ATP luminescence, 48 h; percent of positive-control rescue, neutral wells zero; protection from apoptosis, % (test concentration not listed); hit rate 0.8% among 300,000;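 active means all replicates at 75% or more, or half of them and the mean; inconclusive means half reach 75% but not the mean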;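 further: 0% = cytokine-treated negative control wells and 100% = positive control rescue; higher means more ATP so stronger rescue from cytokine killing; wells of about 40 µL received 100 nL stock; the first replicate is given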
# T cruzi repl – blocks replication of Trypanosoma cruzi; T. cruzi beta-gal in NIH3T3, luminescence, 90 h; inhibition, % (test concentration not listed); hit rate 1.4% among 300,000;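 active means mean inhibition across valid replicates above about 55%, limit read from the data; inconclusive means mean below that limit but half or more replicates reach it; inactive means mean below it, under half of replicates reach it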;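 further: signal also drops with host cell toxicity which is not excluded here; 0% = plate median of DMSO wells and 100% = zero luminescence signal; higher percent means less beta-gal luminescence so fewer parasites; stock transfer was 50 nL into about 50 µL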
# Calb FLC – C. albicans growth modulation with fluconazole; C. albicans CaCi-2 (fluconazole-resistant clinical isolate) + fluconazole, Alamar Blue growth, 48 h; growth inhibition, % (no concentration beside the values); hit rate 0.57% among 300,000;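 active means most replicates above 75%; inconclusive means exactly half above 75%; inactive means most below 75%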;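 further: all wells also contain fluconazole at 8 µg/ml as a sub-toxic cotreatment; 0% = median of DMSO wells and 100% = median of geldanamycin control wells; wells of about 8 µL received 7.5 nL stock; the first replicate is given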
# rRNA inh HTS OD600 – further read-out of rRNA inh HTS, marked with its call; OD600 change, %; measured here: OD600 growth;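 optical density of the mix in the first replicate; 0 = DMSO median and -100 = no signal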
# rRNA inh HTS RFP – recorded beside rRNA inh HTS, whose call it bears; RFP signal change, %; measured here: RFP humanized mutant strains;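 first replicate; 0 = DMSO median and -100 = no signal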
# The depositor's hits bear a star; ? = inconclusive; nt = no result given; & = joins results of further samples. Only part of the results is shown, so the mix of outcomes need not match the whole.
SMILES,LANA-H2B inh,B2AR ag,A1 inh,ALR inh,rRNA inh HTS,rRNA inh HTS OD600,rRNA inh HTS RFP,Beta apoptosis,T cruzi repl,Calb FLC
Cc1c(C(=O)N(C)C2CC(C)(C)NC(C)(C)C2)oc2c(F)cccc12,-0.8,3,-0.6,-6,3,4,-1.3,-4,3,2
COc1cc(CC(=O)OCC(=O)NC(C)c2ccccc2)cc(OC)c1OC (stereo not drawn),-5.4,-6,0.9,-10,5,5,-1.0,-4,nt,nt
O=C(COc1ccc(Br)cc1)NNC(=O)c1ccc(-n2cncn2)c([N+](=O)[O-])c1,1.6,-4,0.0,nt,3,2,-0.6,4,nt,nt
Clc1ccc(Cn2ncc3c(N4CCCCC4)ncnc32)cc1,-3.5,-13,0.4,-6,nt,nt,nt,0,5,13
COc1ccc(/C=C/C(=O)NCC(=O)N/N=C/c2ccc(OC)cc2)cc1,-4.2,-5,1.0,22,2,2,-2.2,3,2,-9
COc1ccc(OC)c(C2C(C(C)=O)=C(O)C(=O)N2c2ccc(O)cc2)c1 (stereo not drawn),-0.5,-3,1.2,58,nt,nt,nt,-2,2,0
O=C(Nc1ccc(OCc2ccccc2)cc1)c1cccs1,4.7,-1,-5.4,5,7,5,-1.3,5,-9,-3
Cn1c(NCCO)nc2c(c1=O)C1(CCCCC1)Cc1ccccc1-2,-6.1,15,-0.9,30,-21,-33,-1.2,-8,18,7
COc1ccc(C2OC3=C(Nc4cc(C)c(C)cc4N3)C2=O)cc1 (stereo not drawn),3.4,-12,-0.6,-4,9,16,-0.9,-8,-6,36
O=C(NCCc1ccccc1)c1ccc2c(c1)S(=O)(=O)c1ccccc1C2=O,0.6,-1,0.4,-3,-23*,-12*,-0.8*,0,-7,-2
Cc1nnc(SCC(=O)NCc2ccco2)n1-c1ccccc1,1.2,1,0.6,-3,nt,nt,nt,-4,-5,-1
CCc1oc(C(=O)O)cc1CN(CC)CC,-0.5,11,-0.4,-5,12,13,4.4,-2,-9,0
CC(C)c1ccc(-c2nc(N3CCCCCC3)nc3n[nH]c(N)c23)cc1,2.0,22,0.1,-5,nt,nt,nt,1,28,-7
CC(C)N(C(=O)CN(C#N)c1nc(N(C)C)nc(N(C)C)n1)c1ccccc1,12,2,-0.4,-5,13,10,-3.9,10,25,-4
COc1ccccc1CNC(=O)C1CCN(S(=O)(=O)c2ccc3c(c2)CC(C)N3C(C)=O)CC1 (stereo not drawn),-3.2,-9,1.0,1,-1,-2,3.1,-10,-21,-6
COc1ccc(CCN=C(N)NS(=O)(=O)c2cc(F)ccc2OC)cc1,8.6,4,-0.9,-1,4,8,2.2,1,-12,-3
COc1cc(OC)cc(C(=O)NNC(=O)C2CCCC2)c1,-0.8,2,0.3,-2,0,6,-3.0,nt,-15,2
COc1cc(C(=O)N2C[C@@H]3CCC[C@H]2C3)ccc1OC1CCN(C(C)=O)CC1,3.1,1,-1.2,1,-3,3,-3.2,-5,-3,-5
Cc1ccccc1Cn1c(=O)n(CCC(=O)NCc2ccc3c(c2)OCO3)c(=O)c2ccccc21,0.9,-3,1.4,-13,nt,nt,nt,nt,14,-8
N#C/C(=C(\O)CCl)c1nnc2n1CCCCC2,-2.9,-2,0.3,4,nt,nt,nt,-15,-3,8
O=C(Nc1cccc(Cl)c1)/C(=C\c1cccnc1)NC(=O)c1ccco1,0.2,4,0.4,3,-1,-6,-1.9,-7,6,0
CN(C)CCN(Cc1ccccc1)C(=O)C1CCN(c2ncnc3c2nc2n3CCCCC2)CC1,8.1,-4,-0.9,-2,4,1,0.4,3,5,3
COc1ccc(-c2nc3cnccn3c2Nc2ccc(C)cc2)cc1,-0.8,1,-2.3,86*,-26,-77,-21,3,-2,-3
Cc1ccnc2nc(C(=O)OCC(=O)N(CC(C)C)CC(C)C)nn12,nt,-9,-0.2,-4,15,1,0.6,1,-7,-23
CCCN1C(=O)c2cc(C(=O)Nc3cccc(C(C)=O)c3)ccc2C1Nc1cccc(C(C)=O)c1 (stereo not drawn),-3.4,19,-0.2,-3,9,-3,-2.6,8,1,-3
# Additional compounds follow.
SMILES,LANA-H2B inh,B2AR ag,A1 inh,ALR inh,rRNA inh HTS,rRNA inh HTS OD600,rRNA inh HTS RFP,Beta apoptosis,T cruzi repl,Calb FLC
C=C(C)c1cccc(C(C)(C)NC(=O)Nc2ncccn2)c1,0.5,6,0.2,-5,nt,nt,nt,-4,9,-1
O=C(N/N=C/c1c(O)n(-c2ccc(Cl)cn2)c(=O)c2ccccc12)c1ccncc1,-18,6,-0.4,80*,nt,nt,nt,0,1,?
CCCn1c(SCC(=O)NNC(=O)c2ccccc2)nnc1-c1cccnc1,1.2,-6,0.4,-8,9,3,-4.9,-4,-11,-2
Cc1cc(C)c(OCCCON2C(=O)CCC2=O)c(Br)c1,0.8,1,0.9,-1,-16,-16,-2.5,0,-3,0
O=C(Cc1ccc(Cl)cc1)Nc1ccc(Br)cn1,1.9,-15,1.6,-1,-22,-21,-5.9,-15,8,-2
[N-]=[N+]=NCCN1CCN(CCc2ccccc2)CCC1=O,5.9,-5,-0.3,nt,8,12,-7.0,0,-6,8
CC(C)CCCN1C(Nc2ccccc2)=NC[C@@H]1C,-1.8,-5,0.8,3,10,-2,-8.2,-11,2,-5
c1ccc(C2=Nn3c(nnc3-c3n[nH]c4c3CCC4)SC2)cc1,-4.8,-3,1.5,nt,nt,nt,nt,nt,10,-6
c1ccc2nc(-c3nc4ccccc4[nH]3)ccc2c1,-0.8,-11,-7.3,nt,nt,nt,nt,43,-17,-13
Cc1ccc(S(=O)(=O)NCc2ccc(/C=C(/C#N)C(=O)NCc3ccccc3)o2)cc1,3.6,-4,1.0,-10,-3,12,-0.6,-1,-6,11
N#CCOc1coc(CN2CCN(c3cccc(Cl)c3)CC2)cc1=O,6.8,-1,0.1,2,-1,5,-1.1,nt,3,1
COc1ccc(-c2cc(C(=O)Nc3cc(OC)cc(C(=O)Nc4cccc(C(F)(F)F)c4)c3)[nH]n2)cc1,-1.2,8,0.0,-10,-14&1,-11&20,2.0&-2.4,18,49,-1
Cc1ccc(NC(=O)C2CCCCC2)cc1C,3.5,2,0.9,nt,-4,2,-6.4,1,nt,nt
CSc1nc2ncc(-c3ccsc3)c(N)n2n1,-2.9,-19,-0.1,-10,4,7,-0.9,7,-1,7
COC(=O)[C@H](C)NC(=O)Nc1ccc(C)c(C)c1,2.3,2,0.3,-2,nt,nt,nt,-9,-4,-4
CCN(CC)CCCN1CC(=O)N2[C@@H](Cc3c([nH]c4ccccc34)C2(C)C)C1=O,-2.2,-8,-0.1,0,11,6,1.0,-3,5,-5
Cc1cccc(N2C(=O)C3C4CC(=O)C(c5ccccc54)C3C2=O)c1C (stereo not drawn),3.2,7,1.1,-4,1,3,-0.7,-1,-15,-16
CCCCCCSc1cc(-c2nc3cnccn3c2NCc2ccccc2)ccc1OC,8.4,-26,-0.8,4,nt,nt,nt,-5,32,4
COCCn1c(SCC(=O)N2CCCCC2)nc2c([nH]c3ccccc32)c1=O,4.1,5,0.3,8,10,7,3.0,2,0,2
COc1ccc(CCN2CCCC(CN(C)Cc3cc(OC)ccc3OC)C2)cc1 (stereo not drawn),-3.5,4,1.5,-4,1,5,-0.2,nt,12,0
CCOC(=O)C1(Cc2ccccc2)CCCN(C(=O)c2cnn(CC)c2)C1 (stereo not drawn),-1.1,-7,0.5,0,0,8,1.5,-5,-10,2
Cc1ccc(C(=O)N/C(=C/c2ccc(F)cc2)C(=O)NCc2ccncc2)cc1,-3.7,-2,1.6,-1,5,19,2.4,-5,0,-5
O=C(OCC(=O)N1CCCCC1)c1c[nH]c(=O)[nH]c1=O,-8.5,1,-0.4,-21,nt,nt,nt,-8,-5,-17
CCOC(=O)Cc1nnc(Nc2ccc(C)cc2C)c2ccccc12,-2.1,6,0.0,-7,nt,nt,nt,7,-5,-3
CC(C)C12CN3CC(C(C)C)(CN(C1)C3c1ccccc1)C2O (stereo not drawn),8.5*,7,-0.1,0,20,19,5.6,-1,-7,3
# Remaining list, next part:
SMILES,LANA-H2B inh,B2AR ag,A1 inh,ALR inh,rRNA inh HTS,rRNA inh HTS OD600,rRNA inh HTS RFP,Beta apoptosis,T cruzi repl,Calb FLC
O=C(O)C(=O)/C(=C\c1ccccc1)c1ccc2ccccc2n1,-2.5,-5,-4.4,-4,12,13,12,-8,-8,6
CCC(C)C(NC(N)=O)C(=O)Nc1ccc(C(=O)OC)cc1 (stereo not drawn),2.2,6,-0.1,1,3,8,0.0,-3,-10,11
COc1cccc(CNCc2ccc(C(=O)O)cc2)c1OC,3.3,-2,-0.1,nt,3,7,2.8,-1,-5,-7
CCN1CCN(c2ccc(S(=O)(=O)N3CCCCC3)cc2NC(=O)COc2ccc(Cl)cc2)CC1,-3.3,19,0.0,-7,-2,-9,2.7,nt,50,-3
COc1cccc(CNC(=O)CCNS(=O)(=O)c2ccc3c(c2)oc(=O)n3C)c1,1.1,6,-1.8,-4,-1,-3,0.1,-6,-9,-3
COc1ccc(C(C)C)cc1S(=O)(=O)Nc1ccc(Cl)cn1,-5.0,-4,0.1,-1,nt,nt,nt,-2,2,-4
Cc1ccc(C(c2c(C)nn(-c3ccccc3)c2N)c2c(C)nn(-c3ccccc3)c2N)cc1,5.7,3,1.9,-1,-8,-7,-4.7,3,18,16
Cc1cc(OCC(=O)NCc2cccnc2)c2c(C)c(Cc3ccccc3)c(=O)oc2c1,-0.5,-4,0.8,1,10,6,-1.1,5,8,-1
COc1ccccc1NC(=O)Nc1cc(NC(=O)Nc2ccccc2OC)c(C)nc1C,-0.3,3,0.5,-40,nt,nt,nt,51,-5,-9
Cc1cccc(OCCSCc2nc3ccccc3[nH]2)c1,4.7,-12,0.5,-5,nt,nt,nt,4,0,-6
O=C(COCc1nc2ccccc2c(=O)[nH]1)NCC1CCCCC1,3.3,-8,0.2,-1,2,5,0.2,3,5,-11
Cc1cc(C(=O)CN2C(=O)C(=O)N(CC(C)C)C2=O)c(C)n1-c1ccccc1F,6.1,-1,0.2,2,-25,-46,-3.8,0,21,5
COc1ccc(S(=O)(=O)N2CCN(CC(=O)NC3CCCC3)CC2)cc1,-0.9,-5,0.0,-6,1,-5,-1.7,-2,-2,2
O=C(CCCC(=O)N(CC(=O)NC1CCCCC1)c1ccccc1F)Nc1ccccn1,3.5,-2,0.2,4,4,0,-1.7,-4,2,-17
COc1ccc(Cl)cc1NC(=O)CCCN1C(=O)CCC1=O,0.4,7,0.5,-6,nt,nt,nt,-7,-5,4
CCOC(=O)c1ccc(NC(=S)N(CCCN2CCCC2)Cc2cccs2)cc1,4.0,8,0.3,-1,-5,-9,0.3,nt,8,-27
CCN(CC)S(=O)(=O)c1ccc(NC2c3ncccc3C(=O)N2Cc2ccccc2)cc1 (stereo not drawn),0.4,3,0.3,1,nt,nt,nt,-7,7,-4
